From PubChem BioAssay
Rango complex inh: inhibitors of Rango-importin beta complex formation; Q14974; Rango CFP/YFP FRET sensor + importin beta, 45 min; Potency, µM (doses to about 92.2 µM), for inactives: top-dose inhibition of complex formation; 340,000 compounds, 0.031% hits; active = rising FRET ratio curve, often small or poorly fitted; inconclusive = mostly compound fluorescence or quenching in the first reads; inactive = flat curves in all reads;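 further: potency means the concentration at half of the fitted maximal effect; 0% = DMSO wells and 100% = buffer wells lacking importin beta; nearly all actives have a fitted effect of over 15% in size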
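FRET biosensor (snurportin 1 IBB flanked by EYFP and cerulean), 50 nM, with compound 5 min, then 0.125 microM importin beta in PBS, 1 mM DTT, 0.02% Tween-20, 0.1% BSA. CFP/YFP ratio read after 45 min at room temperature; pre-read flags interference.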
Rango release inh: prevents RanGTP from dissociating the Rango-importin beta complex | Biochemical FRET Rango-importin beta, RanGTP-induced dissociation | Potency, µM (doses to about 46.1 µM), inactives show at the highest dose activity change, negative = inhibition | AID 540253 | O95149+P62826 | 340,000 compounds, 0.071% hits; active means falling FRET ratio curve, often poorly fitted, with flat reads before Ran was added; inconclusive means other falling curves, or compound fluorescence or quenching; inactive means flat or rising ratio curve;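 further: potency means the concentration at half of the fitted maximal effect; % of control where 0% means no effect; nearly all actives have a fitted effect of over 45% in size; -100% = wells without RanGTP and RCC1; the record marks most hits as doubtful in a second field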
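Rango (0.1 uM)–importin beta (0.25 uM) complex; RanGTP-RCC1 trigger; 45 min RT; CFP/YFP FRET read.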
miR-21 reporter: miR-21 reporter, rising signal; HeLa miR-21 FLuc reporter, luciferase, 48 h; Potency, µM (series often up to 38.3 µM), without a hit: at the highest dose reporter change, positive = more light; 340,000 tested, under 10 active; active = well fitted rising curve with a large enough effect; inconclusive = small, poorly fitted or top-dose-only effect; inactive = no such curve, though single readings can be large or run the other way;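 further: % of control where 0% means no effect; miR-21 action dims this reporter so a rising signal means less miR-21 action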
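Compounds were titrated across several concentrations (up to approximately 40 uM) and incubated 48 hours with HeLa miR-21-FLuc reporter cells (miR-21 target sequence downstream of FLuc, endogenous miR-21). Readout was firefly luciferase luminescence after lytic detection reagent.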
GLA inh pH 4.5: alpha-galactosidase A (human) inhibition, pH 4.5; P06280; purified enzyme, 4-MU-alpha-Gal fluorescence, pH 4.5; activity change, negative = inhibition, % at 105 µM; 230,000 tested, under 10 active; inconclusive = small, poorly fitted or top-dose-only inhibition, or a rising curve; inactive = flat fitted curve, though single readings scatter; no compound was filed as active;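 further: 0% = full activity with enzyme and -100% = basal without enzyme; dose as in the result columns while the protocol names 77 µM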
Target sequence (P06280 whole entry, looked up): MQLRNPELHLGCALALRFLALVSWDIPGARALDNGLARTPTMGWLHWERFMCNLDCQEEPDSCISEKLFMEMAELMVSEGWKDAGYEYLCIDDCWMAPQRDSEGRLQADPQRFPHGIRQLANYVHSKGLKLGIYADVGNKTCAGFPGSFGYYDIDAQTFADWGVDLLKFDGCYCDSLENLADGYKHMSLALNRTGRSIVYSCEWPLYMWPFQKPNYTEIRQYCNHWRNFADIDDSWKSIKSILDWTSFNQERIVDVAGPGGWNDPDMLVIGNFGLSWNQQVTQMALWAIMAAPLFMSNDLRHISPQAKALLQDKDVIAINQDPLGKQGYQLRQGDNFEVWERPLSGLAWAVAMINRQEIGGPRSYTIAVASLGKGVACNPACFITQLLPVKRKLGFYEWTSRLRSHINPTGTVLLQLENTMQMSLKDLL
An asterisk follows results filed as active; ? = inconclusive; . = no result given.

1	CCOc1ccc(CC(=O)Nc2nccs2)cc1OCC
2	CCCCn1c(N)c(N(CCOC)C(=O)CN(C)S(=O)(=O)c2ccc(F)cc2)c(=O)[nH]c1=O
3	CCCOc1ccc(Cl)cc1CNc1ccccc1
4	C/C=C/c1ccc(OCC(=O)Nc2cc(C(F)(F)F)ccc2N2CCOCC2)c(OC)c1
5	COc1ccc(C(CC(=O)O)N2C(=O)CCC2=O)cc1 (stereo unspecified)
6	Cc1cccc2sc(NC(=O)C3CSC4(C)CCC(=O)N34)nc12 (stereo unspecified)
7	O=C(NNc1nc(N2CCOCC2)nc(N2CCOCC2)n1)c1ccccc1
8	COc1cc2ccccc2c2c1CCCC2=O
Assay by compound	1	2	3	4	5	6	7	8
Rango complex inh	0.1%	5.2%	-2.0%	-9.4%	5.5%	5.9%	2.0%	0.1%
Rango release inh	-0.5%	-16.1%	35.6%	-4.0%	23.5%	11.0%	10.7%	1.4%
miR-21 reporter	-2.5%	.	-14.4%	-0.2%	0.2%	0.4%	.	1.8%
GLA inh pH 4.5	?	.	-14.9	.	.	.	.	6.0

9	COc1cc(C(=O)N/N=C/c2ccsc2C)cc(OC)c1OC
10	Cc1cc(C)c(S(=O)(=O)N2CCN(C(=O)C(C)Cn3cncn3)CC2)c(C)c1 (stereo unspecified)
11	CC(O)CO (stereo unspecified)
12	COc1cccc(CNc2ncc(-c3ccccc3)n2C)c1
13	CC(C)(C)S(=O)(=O)N1Cc2cc(=O)n(Cc3ccccc3)c(CCO)c2[C@@H]1CCO
14	NC(=S)NN=C(c1ccc(F)cc1)C1CC1
15	c1ccc(C2Nc3ccccc3Oc3ccccc32)cc1 (stereo unspecified)
16	CCc1cc2c(=O)[nH]c(N3CCCC3)nc2s1
Assay by compound	9	10	11	12	13	14	15	16
Rango complex inh	-2.0%	-0.6%	0.4%	-1.3%	-4.6%	-1.9%	-4.6%	3.1%
Rango release inh	0.4%	10.6%	0.1%	-5.4%	-0.4%	-1.5%	2.9%	-1.7%
miR-21 reporter	17.4%	6.8%	.	7.8%	.	.	-2.4%	-39.1%
GLA inh pH 4.5	11.7	.	.	.	.	.	-3.7	5.6

Of the compounds above, 2 contain an NH in an aromatic ring:
2	CCCCn1c(N)c(N(CCOC)C(=O)CN(C)S(=O)(=O)c2ccc(F)cc2)c(=O)[nH]c1=O
16	CCc1cc2c(=O)[nH]c(N3CCCC3)nc2s1
Assay by compound	2	16
Rango complex inh	5.2%	3.1%
Rango release inh	-16.1%	-1.7%
miR-21 reporter	.	-39.1%
GLA inh pH 4.5	.	5.6

A few values from above.
NC(=S)NN=C(c1ccc(F)cc1)C1CC1 @ Rango release inh = -1.5%
COc1cccc(CNc2ncc(-c3ccccc3)n2C)c1 @ Rango release inh = -5.4%
CC(C)(C)S(=O)(=O)N1Cc2cc(=O)n(Cc3ccccc3)c(CCO)c2[C@@H]1CCO @ Rango complex inh = -4.6%
CC(O)CO (stereo unspecified) @ Rango complex inh = 0.4%
COc1cc(C(=O)N/N=C/c2ccsc2C)cc(OC)c1OC @ Rango complex inh = -2.0%
CCc1cc2c(=O)[nH]c(N3CCCC3)nc2s1 @ miR-21 reporter = -39.1%

Next section:
17	Nc1nc(Nc2ccccc2)nc(NCc2ccco2)c1[N+](=O)[O-]
18	CCCCNC(=O)Cn1cnc2c(cnn2-c2ccc(C)c(C)c2)c1=O
19	O=C(NN1CCCCC1)c1cccc(COc2ccc(Cl)cc2)c1
20	CC(C)N(C1=N/C(=C\c2ccco2)C(=O)N1c1ccccc1)C(C)C
21	Cc1ccc(NC(=O)C2CCN(S(=O)(=O)c3c(C)n[nH]c3C)CC2)c(C)c1
22	CCOC(=O)N1CCN(C(=O)c2ccc3c(=O)n(CC4CCCO4)c(=S)[nH]c3c2)CC1 (stereo unspecified)
23	CCn1c(CNC(=O)c2ccco2)nnc1SCC(=O)Nc1ccc(Br)cc1F
24	O=C(c1cc2ccccc2o1)N1CCN(S(=O)(=O)/C=C/c2ccccc2)CC1
Assay by compound	17	18	19	20	21	22	23	24
Rango complex inh	9.9%	0.9%	-2.2%	?	-1.5%	3.3%	1.5%	-3.2%
Rango release inh	0.9%	1.4%	-10.7%	?	0.3%	15.6%	-15.1%	-14.3%
miR-21 reporter	-12.1%	2.0%	-44.7%	-0.1%	-5.8%	-9.1%	1.0%	3.7%
GLA inh pH 4.5	-11.4	3.5	-4.8	-20.2	.	3.6	-0.8	-7.5

25	Nc1nonc1C(=O)NCCNc1ncccc1[N+](=O)[O-]
26	O=[N+]([O-])c1ccc(S(=O)(=O)N/N=C/c2ccc3c(c2)OCO3)cc1
27	CCN1CCCC1CNC(=S)Nc1ccc(C(C)=O)cc1 (stereo unspecified)
28	Cc1cccn2c(=O)c3cc(C(=O)NCC4CCCO4)c(=N)n(CCN4CCOCC4)c3nc12 (stereo unspecified)
29	Cc1ccc(-c2noc(CCC(=O)NCc3ccc4c(c3)OCO4)n2)cc1
30	COc1ccc(C2=NN(c3nc(-c4ccccc4)c(CC(=O)O)s3)C(c3ccco3)C2)cc1 (stereo unspecified)
31	COc1ccc(C(=O)c2ccc(CC#N)s2)cc1
32	O=C(CN1CCCCC1)Nc1cccc2c1OCO2
Assay by compound	25	26	27	28	29	30	31	32
Rango complex inh	1.9%	7.9%	0.2%	?	1.1%	?	1.8%	1.4%
Rango release inh	-2.4%	-1.4%	3.4%	?	28.7%	?	-8.9%	-1.1%
miR-21 reporter	-14.7%	-9.3%	-1.9%	0.8%	-2.0%	-18.2%	-10.1%	0.6%
GLA inh pH 4.5	9.4	.	-1.9	7.4	-8.8	?	-1.0	-0.6

33	CC(C)=CCN1CCN(Cc2cc(F)ccc2-n2nc(C)cc2C)CC1CCO (stereo unspecified)
34	Cc1ccccc1N1C(=O)c2ccccc2NC1c1ccncc1 (stereo unspecified)
35	O=C(c1ccco1)N(Cc1cccc([N+](=O)[O-])c1)c1ccc(Br)cc1
36	O=C(Nc1ccc(S(=O)(=O)NCc2ccccc2)cc1)c1ccccc1[N+](=O)[O-]
37	COc1cc(CCC(=O)OCC(=O)NC(=O)c2ccc(Cl)cc2)cc(OC)c1OC
38	COC(=O)c1cccc(NC(=O)CSc2nc(C)cc(=O)[nH]2)c1
39	CC(C)c1ccc2c(c1)[C@H]1OCC[C@H]1[C@@H](c1cccs1)N2
40	CCCC1C(C#N)=C(N)Oc2cc(C)n(C)c(=O)c21 (stereo unspecified)
Assay by compound	33	34	35	36	37	38	39	40
Rango complex inh	-3.4%	-0.9%	1.3%	-0.2%	?	-3.0%	2.7%	?
Rango release inh	-0.3%	5.8%	-2.4%	-12.9%	-28.5%	12.5%	17.2%	?
miR-21 reporter	-1.9%	-3.4%	4.0%	-7.0%	-2.1%	-2.4%	3.0%	1.3%
GLA inh pH 4.5	6.2	-1.2	?	-14.1	4.9	0.8	-3.3	3.5

41	COc1cccc(/C=N/NC(=O)CSc2nnc(C)n2-c2ccccc2)c1OC
42	CN(C(=O)CCN1C(=O)C2C3C=CC(C3)C2C1=O)c1ccccc1 (stereo unspecified)
43	O=Nc1ccc(O)c2ncccc12
44	COC(=O)C1=C(CCc2ccccc2)NC(=O)NC1c1ccc(Cl)cc1 (stereo unspecified)
45	Cc1ccc(NS(=O)(=O)c2cccs2)nc1
46	Cc1ccc(S(=O)(=O)Nc2ccc(O)c(Sc3ncn[nH]3)c2)cc1
47	CCOC(=O)c1ccc(Oc2nc(NC)nc(OC)n2)cc1
48	COCCn1c(-c2ccc(F)cc2)nc2oc3cc(OC)ccc3c(=O)c2c1=O
Assay by compound	41	42	43	44	45	46	47	48
Rango complex inh	-5.1%	-1.2%	2.6%	-0.1%	-3.0%	-0.2%	-3.4%	2.4%
Rango release inh	-22.5%	42.4%	-13.3%	5.7%	4.2%	7.8%	9.5%	3.7%
miR-21 reporter	-3.7%	-2.2%	?	.	3.0%	-1.3%	-17.0%	-0.2%
GLA inh pH 4.5	-14.9	7.6	-8.2	.	.	6.3	-4.8	7.0

49	Cc1cc(N2O[C@H]3C=C[C@@H]2C3)no1
50	CC1CC(C)CN(C(=O)Nc2ccc(Br)cc2)C1 (stereo unspecified)
51	CC(=O)c1c(C(C)=O)c(C)n(NC(=O)c2ccccc2O)c1C
52	Cc1nc(Cc2nnc(SCc3nc(N)nc(Nc4ccccc4C)n3)o2)cs1
53	CCN(CC)CCC(=O)NC(C)(C)Cc1ccc(O)cc1
54	CCOC(=O)CN1CC23C=CC(O2)C(C(=O)NC2CCCCCC2)C3C1=O (stereo unspecified)
55	O=C(NC(Cc1c[nH]c2ccccc12)C(=O)NCc1ccc(F)cc1)OCc1ccccc1 (stereo unspecified)
56	COc1ccc(NC(=O)CN2CCN(c3ccc(F)cc3)CC2)cc1
Assay by compound	49	50	51	52	53	54	55	56
Rango complex inh	-1.4%	-3.5%	0.1%	0.0%	0.9%	-0.8%	2.2%	-0.7%
Rango release inh	0.3%	-0.3%	-6.1%	0.3%	2.7%	23.5%	4.5%	1.3%
miR-21 reporter	.	-12.7%	-0.8%	-17.2%	-2.2%	-8.0%	-1.1%	-3.9%
GLA inh pH 4.5	.	-4.7	4.0	13.9	-7.5	3.4	?	.

57	CCCCC(CC)CNC(=O)C(Cc1ccccc1)NS(=O)(=O)c1ccc2c(c1)CCC(=O)N2 (stereo unspecified)
58	C=CCNc1nc(NC(C)(C)CO)nc(OCC)n1
59	Cc1nnc2n(-c3ccccc3)c(=O)c3c4c(sc3n12)CC(C)CC4 (stereo unspecified)
60	Cc1nc2c(C(=O)NCCC3=CCCCC3)c[nH]n2c(=O)c1Cl
61	Cc1cc(C)n2nc(SCC(=O)N(CC(C)C)c3c(N)n(CC(C)C)c(=O)[nH]c3=O)nc2n1
62	Cc1ccc(C(c2nnnn2CCC(C)C)N2CCN(C)CC2)cc1 (stereo unspecified)
63	CCc1ccc(CN2CCN(C(=O)c3ccco3)CC2)cc1
64	COC(=O)c1c(C)oc2ccc(N(C(=O)c3ccncc3)S(=O)(=O)c3ccccc3)cc12
Assay by compound	57	58	59	60	61	62	63	64
Rango complex inh	-2.1%	-3.1%	1.8%	0.0%	-1.0%	-0.2%	-1.6%	3.6%
Rango release inh	-12.6%	4.3%	9.1%	-12.7%	-15.2%	15.8%	13.6%	25.6%
miR-21 reporter	6.3%	-3.5%	-8.0%	-3.5%	-4.3%	-0.3%	-6.8%	20.1%
GLA inh pH 4.5	1.3	10.4	3.0	5.0	-12.6	5.1	.	7.3

65	CCSc1nnc(-c2c[nH]c3ccccc23)o1
66	CC(C)(c1cc(Br)c(O)c(Br)c1)c1cc(Br)c(O)c(Br)c1
67	O=C(COC(=O)/C=C/c1cccc(F)c1)Nc1ccc2[nH]c(=O)[nH]c2c1
68	COc1ccc(CNC(=O)COC(=O)C2=COCCO2)cc1
69	CC(=O)c1cccc(-n2nnnc2SCC(=O)NNC(=O)C(C)C)c1
70	COc1ccc(CN2CCN(Cc3cccn3-c3ncccn3)CC2CCO)c(C)c1C (stereo unspecified)
71	C=CCn1c(COc2ccc(CC)cc2)nnc1SCC(=O)NC1CCS(=O)(=O)C1 (stereo unspecified)
72	Cc1cc(C(=O)NC2CCCc3c2cnn3-c2cc(F)cc(F)c2)nn1C (stereo unspecified)
73	Cc1cc(Oc2ccc(Br)cc2)nc(SCC(=O)c2ccccc2)n1
74	O=C(c1cc(Br)ccc1Cl)N1CCCC1
Assay by compound	65	66	67	68	69	70	71	72	73	74
Rango complex inh	0.7%	-2.1%	-2.1%	-1.4%	3.4%	2.6%	-1.8%	0.1%	-0.5%	?
Rango release inh	-20.1%	-2.5%	-11.3%	-4.5%	-1.3%	10.3%	11.9%	-0.4%	-2.1%	1.1%
miR-21 reporter	-48.3%	.	.	0.7%	0.1%	0.7%	-3.4%	-10.4%	-0.6%	4.6%
GLA inh pH 4.5	.	.	.	5.5	1.5	-2.7	1.4	.	4.5	0.9

A portion of the library (hit frequency here may not be typical).
